Bioassay records: PubChem BioAssay, Sanford-Burnham Center for Chemical Genomics
HNF4A DNA FP = change in binding of human HNF4 alpha to DNA; HNF4a-FITC DNA binding, fluorescence polarization, 1 h; 360,000 compounds, 0.3% hits; activity change, % at 10 µM; P41235; in the data active means activity change above about 30%, passing the limit was not always enough;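 further: controls were the assay level and a saturating level of protein; the project sought stronger binding though the title names inhibitors; some compounds called inactive have numbers as strong as hits; positive values seem to mean higher polarization but the record does not say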
Target sequence (P41235 whole entry, looked up): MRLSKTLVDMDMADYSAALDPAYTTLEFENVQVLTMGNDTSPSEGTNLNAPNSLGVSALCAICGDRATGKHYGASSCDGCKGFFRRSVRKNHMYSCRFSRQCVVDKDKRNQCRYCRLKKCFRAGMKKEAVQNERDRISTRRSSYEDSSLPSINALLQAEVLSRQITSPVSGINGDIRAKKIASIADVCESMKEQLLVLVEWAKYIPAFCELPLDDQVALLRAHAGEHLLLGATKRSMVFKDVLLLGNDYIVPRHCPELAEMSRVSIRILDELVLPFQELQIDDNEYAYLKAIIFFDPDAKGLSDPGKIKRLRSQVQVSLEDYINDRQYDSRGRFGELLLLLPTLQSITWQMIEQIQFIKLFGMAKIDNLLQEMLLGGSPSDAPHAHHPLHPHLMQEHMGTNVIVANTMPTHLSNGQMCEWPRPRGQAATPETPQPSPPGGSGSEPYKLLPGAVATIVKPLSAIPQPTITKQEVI
* hit, by the source's call.

SMILES	HNF4A DNA FP
CC1(c2nnnn2-c2ccc3c(c2)OCCO3)CCC(=O)N1CCOc1ccccc1 (stereo unspecified)	-0.1
OC(c1ccc(F)cc1)c1nc(-c2ccoc2)cs1 (stereo unspecified)	2.2
O=C(NC1CCCCC1)C(c1ccncc1)n1c(=O)c(-c2ccccc2)nc2ccccc21 (stereo unspecified)	0.9
Cn1c(NCc2ccc3occc3c2)nc2cc(-c3ccc(F)cc3)sc2c1=O	-1.2
OC[C@H]1O[C@H](c2nc(-c3nc(-c4cccc(-n5cccc5)c4)no3)cs2)C[C@@H]1O	7.5
C[C@H](CO)N1C[C@H](C)[C@H](CN(C)Cc2cncnc2)Oc2ncc(C#CC3(O)CCCC3)cc2C1=O	1.9
CC(C)c1ccccc1NC(=O)Nc1nc(C(N)Cc2ccc(C(F)(F)F)cc2)cs1 (stereo unspecified)	-0.4
CO[C@H]1CN(C)C(=O)c2ccc(NC(=O)NC(C)C)cc2OC[C@H](C)NC[C@H]1C	-2.5
Cn1c(=O)c2cc(NC(=S)NC3CC3)ccc2n1Cc1cccc(C(F)(F)F)c1	-2.3
O=[N+]([O-])c1nccn1CCCCCCN1CCOCC1	0.5
CN(Cc1ccccc1)C(c1ccnc2ccccc12)c1nnnn1-c1ccc2c(c1)OCCO2 (stereo unspecified)	0.9
COc1ccc(C(=O)N2CCCC(c3cc(C(=O)Nc4ccccc4)no3)C2)cc1 (stereo unspecified)	5.0
CC(C)S(=O)(=O)NC(=O)C1(C)CCN1C(=O)Cc1ccccc1Cl (stereo unspecified)	0.0
CC(C)NC(=O)C1(C)CN(S(C)(=O)=O)CC(=O)N1CCc1ccc(O)cc1 (stereo unspecified)	0.7
CCc1ccccc1Oc1nc(NCCOC)nc2cc(-c3ccccc3)sc12	5.0

Reprinted from the part before: 2 compounds, then new ones.
SMILES	HNF4A DNA FP
CC(C)NC(=O)C1(C)CN(S(C)(=O)=O)CC(=O)N1CCc1ccc(O)cc1 (stereo unspecified)	0.7
CCc1ccccc1Oc1nc(NCCOC)nc2cc(-c3ccccc3)sc12	5.0
COc1ccc(NC(=O)c2cc(-c3cc(F)ccc3OC(C)C)n[nH]2)cc1OC	3.0
CCCCC(=O)N(C)c1c(CC)nc2c(OCCOc3ccc(F)cc3)cccn12	1.6
Nc1nc(N)c2cc(S(=O)(=O)c3ccc4ccccc4c3)ccc2n1	0.1
CCOC(=O)C1CCCN(C(=O)c2ccc3c(c2)C(C)(C)CCC3(C)C)CC1 (stereo unspecified)	0.6
Cc1ccccc1-c1csc(C(O)c2ccccc2)n1 (stereo unspecified)	1.2
O=S(=O)(NCC[C@@H]1CC[C@H](NS(=O)(=O)c2cccc(F)c2)[C@@H](CO)O1)c1cccc(F)c1	6.0
Nc1nc2c(ncn2[C@@H]2O[C@H](CNS(=O)(=O)N3CCCC3)[C@@H](O)[C@H]2O)c(=O)[nH]1	-0.2
COCCNC(=O)C1C(=O)Nc2ccccc2C(=O)N1C1CCCC1 (stereo unspecified)	2.2
CN(C)c1ccc(C(=O)N2CCC2(C)C(=O)O)cc1 (stereo unspecified)	-5.0
COc1ccc(-c2cc(C(=O)NCc3ccc(F)cc3)[nH]n2)c(C)c1	2.3
CC(C)C(C(=O)NCc1ccccc1)N1CCN(C(=O)C2CCCO2)CC1 (stereo unspecified)	-2.7
COc1ccc(Cc2c(C(C)(C)C)nc3ccc(C)cn23)c(C)c1	0.1
CC(=NO)C1(C)CC=CCC1CO (stereo unspecified)	1.4
CCOC1=C2CN(S(=O)(=O)c3ccc(C)cc3)[C@H](c3cccc4ccccc34)C[C@H]2[C@H]2C(=O)N(c3ccccc3)C(=O)[C@H]2C1	2.7
COC(=O)c1ccc2nc(-c3ccc(F)cc3)c(Cc3ccccc3C(F)(F)F)n2c1	4.1
COc1ccc([C@@H]2CC(=O)[C@@H]3CN(S(=O)(=O)c4ccc(Cl)cc4)[C@H](c4ccc(C)cc4)C[C@@H]3N2S(=O)(=O)c2ccccc2)cc1	2.3
COc1ccccc1C(=O)N1CCN(C(=O)[C@H]2O[C@@H](n3cnc4c(N)ncnc43)[C@H](O)[C@@H]2O)CC1	2.1
CC(C)NC(=O)c1ccc2sc([C@@H]3O[C@H](CO)[C@H](O)[C@H](O)[C@H]3O)nc2c1	-1.1
CCCCNC(=O)c1nc(C2CCNCC2)oc1-c1ccccc1	2.9
Cc1cc(C(=O)N2CCCC2(C)C(=O)NCC(C)C)nn1C(C)(C)C (stereo unspecified)	0.7
O=C(/C=C/[C@H]1O[C@@H](n2ccc(=O)[nH]c2=O)[C@H](O)[C@@H]1O)NCc1cccc2ccccc12	-0.1
COCCN(C(=O)COC(=O)c1ccc2ccccc2c1)c1c(N)n(Cc2ccccc2)c(=O)[nH]c1=O	-0.5
CC1(Br)C(Sc2ccccc2[N+](=O)[O-])=Nc2ccccc21 (stereo unspecified)	1.8
CO[C@@H]1CN(C)C(=O)c2cc(NC(=O)Nc3cc(F)ccc3F)ccc2OC[C@H](C)N(C(=O)c2cnccn2)C[C@@H]1C	2.1
COc1ccc(N2CC(C)(C)[C@H](CC(=O)Nc3ccccc3)C2=O)cc1	-11
CC(=O)Nc1cccc(-c2ccnc3c2CC(C(=O)Nc2cccnc2)O3)c1 (stereo unspecified)	4.1
CCNC(=O)C1(C)CCCN(C(=O)c2ccc(F)c(C)c2)C1 (stereo unspecified)	-1.6
Cn1c(=O)c2c(-c3ccccc3)n(-c3ccccc3Br)cc2n(C)c1=O	-6.9
OC(c1cc(F)cc(Cl)c1)c1ncc(-c2ccccc2Cl)[nH]1 (stereo unspecified)	1.1
COc1ccc(CNC(=O)Nc2nc(C(N)Cc3ccc(Cl)cc3)cs2)cc1 (stereo unspecified)	-0.4
COCCNC(=O)c1sc(=O)n(Cc2ccc(SC)cc2)c1C	4.8
COc1ccc(C(C)(O)c2nc(-c3ccccc3OC)cs2)cc1 (stereo unspecified)	-1.0
Cc1ccc(-c2cnc3cccnn23)cc1F	5.5
CC(=O)C(=Cc1cccc(C#N)c1)C(=O)c1ccccc1	2.9
CC(=O)Nc1cc(-c2cccc(C(=O)NCCO)c2)cn2c(-c3ccc(F)c(Cl)c3)cnc12	0.6
COC(=O)c1cccc(CC2(C)C(=O)Nc3ccc(OC(F)(F)F)cc32)c1 (stereo unspecified)	-0.7
COC(=O)[C@]12CCCCC=C1N(Cc1ccco1)C(=O)[C@H](CC(=O)NCc1cccs1)C2	0.7
Cc1ccc(-c2nc3c(C)cc(Br)cn3c2Cc2ccccc2)cc1	3.5
Cc1cccc(C)c1-n1nnnc1C(c1ccnc2ccccc12)N1CCOCC1 (stereo unspecified)	4.1
CCc1ccc(C(O)c2ncc(-c3cccc(F)c3)[nH]2)cc1 (stereo unspecified)	1.5
CCOC(=O)C1=NOC2(C1)C(=O)Nc1ccc(OC)cc12 (stereo unspecified)	0.7
O=C1COc2ccccc2C(c2nc3ccccc3[nH]2)N1C1CC1 (stereo unspecified)	-1.2
COc1ccc(NC(=O)c2ccc(-c3c(C)noc3C)c3ccoc23)cc1	5.8
O=C(NCc1ccccc1Cl)[C@H]1CCCN1C(=O)[C@H]1CCCN1C(=O)c1ccc(Cl)cc1	-0.1
CN(C)CCCOc1ccc(-c2ccc3nncn3c2)cn1	-0.7
O=C(Nc1cccc(C(F)(F)F)c1)C1Cc2c(-c3ccccc3)ccnc2O1 (stereo unspecified)	-0.5
COc1cccc(-c2oc3c(c2C#CCCO)C(O)CCC3)c1 (stereo unspecified)	-1.8
COc1ccc([C@@H]2C[C@H]3[C@@H](CN2S(=O)(=O)c2ccccc2)C(=O)C[C@@H](c2cccc(Cl)c2)N3S(=O)(=O)c2ccc(C)cc2)cc1	1.3
CCCN(CC1CC1)c1cc2c(c3c1ccn3C)C1CCC2O1 (stereo unspecified)	-3.0
O=C(NCCc1cccs1)Nc1nnc([C@H]2C[C@H](O)[C@@H](CO)O2)s1	-4.4
O=C(Nc1cc(Br)ccc1F)c1nc[nH]c1C(=O)NCc1ccccc1	-2.7
CCC(CC)C(=O)N(C)c1c(C)nc2c(OCCOc3ccccc3)cccn12	2.0
COc1ccc(OC)c(NC(=O)Nc2nc(C(N)c3ccccc3Cl)cs2)c1 (stereo unspecified)	-0.6
c1ccc2c(C(c3nnnn3-c3ccc4c(c3)OCCO4)N3CCOCC3)ccnc2c1 (stereo unspecified)	0.9
Cc1ccc(C(O)c2ncc(-c3ccc(C(F)(F)F)cc3)[nH]2)cc1F (stereo unspecified)	-2.1
O=C1NC[C@@H](CCCCN2C[C@H](Cc3ccc(O)cc3)N(CCc3ccccc3)C(=O)C2=O)N(CCc2ccc(O)cc2)C1=O	-2.4
CC1(C(=O)NS(=O)(=O)c2ccc(C#N)cc2)CCN1C(=O)c1cccc(F)c1 (stereo unspecified)	-4.7
CCCCCCCCN1C(=O)[C@H](CC(=O)N2CCCCC2)C[C@@]2(C(=O)OC)CCCCC=C12	1.7
CCN1C(=O)[C@H]2[C@@H](c3ccc(C(F)(F)F)cc3)N[C@]3(CCCN(Cc4ccccc4)C3=O)[C@H]2C1=O	1.6
O=C1NN=C2CCCCCC12 (stereo unspecified)	-0.3

(listing goes on)
SMILES	HNF4A DNA FP
CSc1ccc(CN2C(=O)C(F)(F)Oc3c(C(C)=O)cccc32)cc1	2.6
Cc1ccc(OCCNC(=O)[C@H]2O[C@@H](n3ccc(=O)[nH]c3=O)[C@H](O)[C@@H]2O)cc1C	5.5
NC(c1csc(Nc2nncc3ccccc23)n1)c1ccccc1Cl (stereo unspecified)	-2.5
CCCCNC(=O)OC1CC2CC1[C@H]1CCCCN1C2=O (stereo partly specified)	3.2
CCCS(=O)(=O)NC(=O)C1(C)CCN(C(=O)c2cccc(OC(F)(F)F)c2)C1 (stereo unspecified)	0.0
COC(=O)C[C@@H]1CC[C@H](NS(=O)(=O)c2ccccc2F)[C@@H](CO)O1	0.8
CCc1nc2c(OCC3CCCCC3)cccn2c1N(C)C(=O)c1ccccc1F	2.4
CCNC(=O)C1CCCN(Cc2ccc(C(=O)OCC)cc2)CC1 (stereo unspecified)	3.5
COc1cc(CN2C(=O)C(C)ON=C2c2ccccc2F)cc(OC)c1 (stereo unspecified)	0.8
O=C(Nc1ccc2c(c1)OCO2)c1ccc2sc([C@H]3C[C@H](O)[C@@H](CO)O3)nc2c1	2.5
Cc1cccc(NC(=O)COC(=O)c2c(-c3ccccc3)noc2C)c1	-0.8
c1ccc2c(-c3cccc4nccn34)cncc2c1	-0.6
COc1ccc(C(C)(O)c2nc(-c3ccc(OC)nc3)cs2)cc1 (stereo unspecified)	4.7
C[C@@H]1CN([C@@H](C)CO)C(=O)c2cc(Br)cnc2O[C@H]1CN(C)C(=O)Nc1ccc2c(c1)OCO2	-1.2
O=C(COC(=O)c1ccc(S(=O)(=O)N2CCOCC2)cc1)NCc1ccco1	-2.8

Five entries from above, ordered by number of heavy atoms, ascending.
SMILES	HNF4A DNA FP
c1ccc2c(-c3cccc4nccn34)cncc2c1	-0.6
COc1ccc(C(C)(O)c2nc(-c3ccc(OC)nc3)cs2)cc1 (stereo unspecified)	4.7
NC(c1csc(Nc2nncc3ccccc23)n1)c1ccccc1Cl (stereo unspecified)	-2.5
Cc1ccc(OCCNC(=O)[C@H]2O[C@@H](n3ccc(=O)[nH]c3=O)[C@H](O)[C@@H]2O)cc1C	5.5
CCc1nc2c(OCC3CCCCC3)cccn2c1N(C)C(=O)c1ccccc1F	2.4

The listing picks up; the seven compounds before the break are reprinted first.
SMILES	HNF4A DNA FP
COc1cc(CN2C(=O)C(C)ON=C2c2ccccc2F)cc(OC)c1 (stereo unspecified)	0.8
O=C(Nc1ccc2c(c1)OCO2)c1ccc2sc([C@H]3C[C@H](O)[C@@H](CO)O3)nc2c1	2.5
Cc1cccc(NC(=O)COC(=O)c2c(-c3ccccc3)noc2C)c1	-0.8
c1ccc2c(-c3cccc4nccn34)cncc2c1	-0.6
COc1ccc(C(C)(O)c2nc(-c3ccc(OC)nc3)cs2)cc1 (stereo unspecified)	4.7
C[C@@H]1CN([C@@H](C)CO)C(=O)c2cc(Br)cnc2O[C@H]1CN(C)C(=O)Nc1ccc2c(c1)OCO2	-1.2
O=C(COC(=O)c1ccc(S(=O)(=O)N2CCOCC2)cc1)NCc1ccco1	-2.8
CCc1nc2ccc(C(=O)Nc3cc(-c4ccccc4)ccc3OC)cn2c1N(CC)CCN(C)C	-1.0
COCCNC(=O)C1CCCN(Cc2ccc(C(C)C)cc2)CC1 (stereo unspecified)	-1.9
CCCCCC(=O)N1C[C@@H](O)[C@H](n2cc(-c3ccc(F)cc3)nn2)C[C@@H]1c1ccccc1	4.4
O=C1NC(Cc2ccc(O)cc2)c2nc3cc(F)ccc3c(=O)n2-c2ncccc21 (stereo unspecified)	1.2
COc1ccc(N2C(c3cc(OC)cc(OC)c3)=Cc3ccccc3C2CC(C)=O)cc1 (stereo unspecified)	-1.4
O=C(NC(c1ccc(-c2ccccc2)cc1)c1cnccn1)C1CCN(Cc2ccc(Cl)c(Cl)c2)CC1 (stereo unspecified)	2.6
C[C@H]1CN([C@@H](C)CO)C(=O)CCCn2nncc2CO[C@@H]1CN(C)Cc1cccc(O)c1	-1.3
Cc1ccc(CNC(=O)C2(C)CCN2C(=O)Cc2ccc(-c3ccccc3)cc2)cc1 (stereo unspecified)	-3.1
CCC(=O)N1Cc2cc(C(=O)N(C)C)nc(-c3cccc(-c4cncnc4)c3)c2[C@@H]1CCO	-4.2
COc1ccc(C(C)(NC(C)=O)c2nc(-c3ccc(F)c(Cl)c3)cs2)cc1 (stereo unspecified)	2.4
CN1C(=O)C(c2cn(C)c3ccccc23)(c2cn(C)c3ccccc23)c2cc(Br)ccc21	-4.9
CSCCC(C(=O)Nc1c(C)cccc1C)N1CCC(Cc2ccccc2)CC1 (stereo unspecified)	5.6
COc1cccc(C(C)(O)c2nc(-c3cccc(NC(C)=O)c3)cs2)c1 (stereo unspecified)	-3.0
C[C@@H]1CN([C@H](C)CO)C(=O)CCCn2nncc2CO[C@H]1CN(C)S(=O)(=O)c1cn(C)cn1	-1.7
CCCS(=O)(=O)NC(=O)C1(C)CCN(C(=O)Cc2ccc(OC)c(OC)c2)C1 (stereo unspecified)	2.5
COc1ccc(-c2cc3nc(NCCCN(C)C)n(C)c(=O)c3s2)cc1OC	2.0
O=C(NCCO)c1cccc(-c2cccc3nncn23)c1	0.8

A portion of the library; count on the stated rates, not on these rows.
